# SARS PLP yeast: inhibitors of SARS-CoV papain-like protease in yeast. S. cerevisiae expressing SARS-CoV PLpro, growth rescue; control for the full effect not named in the record. Potency, µM (series often up to 32.9 µM), for the others: at the top dose activity, positive = growth rescue. hit rate 0.19% among 330,000; active means well fitted rising curve with a large enough effect; inconclusive means small, poorly fitted or top-dose-only effect; inactive means no such curve, though single readings can be large or run the other way; further: 0% is about no effect; nearly all actives have a fitted effect of over 55% in size; growth read by luminescence after 48 h
# 2A StopGo: lowers the luciferase signal of an FMDV 2A StopGo reporter; human cells with a luciferase reporter of 2A StopGo recoding; control for the full effect not named in the record; Potency, µM (doses to about 57.9 µM), for the others: at the top dose signal change, negative = less light; hit rate 1.2% among 410,000; AID 1159524; active = well fitted falling curve with a large enough effect; inconclusive = small, poorly fitted or top-dose-only effect; inactive = no such curve, though single readings can be large or run the other way; tested in HEK293T cells; further: on the % scale 0 is the no-effect control and ±100 the full control effect; nearly all actives have a fitted effect of over 45% in size; luciferase light after 4 h
# Cruzain inh Det: cruzain (T. cruzi) inhibition with detergent. P25779. purified cruzain, Z-FR-AMC fluorescence, 0.01% Triton. Potency, µM, without a hit: max response, negative = inhibition, hits mostly inhibitors. hit rate 0.43% among 200,000;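 further: plate controls were neutral wells for no effect and buffer without enzyme for full effect; nearly all actives have a fitted effect of over 40% in size; top concentration of the series not given in the record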
# Target sequence (P25779 123-467 limits assumed): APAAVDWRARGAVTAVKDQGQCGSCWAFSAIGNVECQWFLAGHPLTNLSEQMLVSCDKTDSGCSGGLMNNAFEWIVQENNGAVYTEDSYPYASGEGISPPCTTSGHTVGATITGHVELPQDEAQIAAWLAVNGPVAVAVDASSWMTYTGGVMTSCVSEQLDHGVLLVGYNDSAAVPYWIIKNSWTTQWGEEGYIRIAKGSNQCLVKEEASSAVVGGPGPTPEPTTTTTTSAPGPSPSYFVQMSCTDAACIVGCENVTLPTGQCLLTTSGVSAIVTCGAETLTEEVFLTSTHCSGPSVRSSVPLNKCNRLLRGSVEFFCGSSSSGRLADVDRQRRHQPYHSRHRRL
#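 Enzyme 1.5 nM, Z-FR-AMC 2 uM, NaOAc 100 mM pH 5.5, DTT 5 mM, Triton X-100 0.01%; 15 min RT compound preincubation; kinetic ex360/em450, 60 s delta.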
# NS1 inh: influenza NS1 inhibition; Potency, µM (series often up to 46.1 µM), inactives show top-dose activity, positive = more growth; AID 2326; S. cerevisiae slowed by influenza A NS1, growth recovery by OD600; hit rate 0.4% among 270,000; active means well fitted rising curve with a large enough effect; inconclusive means small, poorly fitted or top-dose-only effect; inactive means no such curve, though single readings can be large or run the other way; further: nearly all actives have a fitted effect of over 50% in size
#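 Growth recovery, yeast-based: influenza A NS1 expressed in S. cerevisiae causes slow growth, and suppressors are detected by OD600. The parent strain without NS1 is used as positive control.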
# Marburg entry inh: inhibitors of Marburg virus binding or cell entry; hit rate 1.8% among 300,000; Potency, µM (doses to about 37.8 µM), for inactives: at the highest dose activity change, negative = inhibition, hits mostly inhibitors; Marburg virus pseudotyped entry inhibition, cell reporter; control for the full effect not named in the record; about a third of the inactives were read at about 46 µM; AID 540276; active = well fitted inhibition curve with a large enough effect; inconclusive = small, poorly fitted or top-dose-only effect, or effect the other way; inactive = flat fitted curve, though single readings scatter; tested in HEK293 cells; about a fifth of its hits are not listed in these tables; further: on the % scale 0 is the no-effect control and ±100 the full control effect; luciferase read-out
# RE007 growth inh: less growth of the S. pombe RE007 Vpr strain; Potency, µM (top dose mostly 92.2 µM), without a hit: at the highest dose activity change, negative = less growth; S. pombe RE007 Vpr strain, BacTiter-Glo ATP luminescence, 24 h; control for the full effect not named in the record; hit rate 0.21% among 360,000; AID 651644; active = well fitted falling curve with a large enough effect; inconclusive = small, poorly fitted or top-dose-only effect; inactive = no such curve, though single readings can be large or run the other way;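 further: on the % scale 0 is the no-effect control and ±100 the full control effect; nearly all actives have a fitted effect of over 50% in size; the assay follows cell death caused by Vpr and the record does not say whether a fall means rescue or toxicity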
#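 Fission yeast RE007 carrying one integrated HIV-1 vpr copy, seeded at OD 0.01 in PMG+AL medium with 23 nL pinned compound. Grown 24 h at 30 degrees; viability read by BacTiter-Glo luminescence after 5 min.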
# Cruzain inh noDet: inhibitors of Trypanosoma cruzi cruzain without detergent; hit rate 2.3% among 200,000; Potency, µM, inactives show max response, negative = inhibition, actives largely listed as inhibitors; AID 1476; P25779; purified cruzain, Z-FR-AMC fluorescence, no detergent;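 further: plate controls were enzyme without inhibitor for no effect and buffer without enzyme for full effect; nearly all actives have a fitted effect of over 40% in size; top concentration of the series not given in the record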
#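 Detergent-free condition (0.00005% Triton X-100) in acetate buffer pH 5.5 with DTT. 1.5 nM enzyme and compound were pre-mixed 15 min, then 2 uM Z-FR-AMC substrate added; reaction progress from fluorescence change between first and third reads (60 s).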
# LASV entry inh: inhibitors of Lassa virus binding or cell entry; Lassa virus pseudotype entry inhibition, cell reporter; control for the full effect not named in the record; Potency, µM (top dose mostly 37.9 µM), for inactives: at the highest dose activity change, negative = inhibition, most hits filed as inhibitors; hit rate 1.2% among 300,000; AID 540256; active means well fitted inhibition curve with a large enough effect; inconclusive means small, poorly fitted or top-dose-only effect, or effect the other way; inactive means flat fitted curve, though single readings scatter; tested in HEK293 cells; further: on the % scale 0 is the no-effect control and ±100 the full control effect; nearly all actives have a fitted effect of over 50% in size; luciferase read-out
# * hit, by the source's call; ? = inconclusive; · = not tested or not shown; & = joins results of further samples; [ ] = remark or other dose. Unless noted, the call rests on the fitted dose curve; in most records, active means well fitted curve in the direction sought with a large enough effect; inconclusive means small, poorly fitted or top-dose-only effect, or another doubt; inactive means no such curve, though single readings can be large; an effect the other way counts as inactive or inconclusive. Potency means the concentration at half of the fitted maximal effect. Compounds as they come. About 4.8% of those tested had a hit in this group.
SMILES,SARS PLP yeast,2A StopGo,Cruzain inh Det,NS1 inh,Marburg entry inh,RE007 growth inh,Cruzain inh noDet,LASV entry inh
COc1ccccc1Nc1nnc(SCC(=O)N2CCCC2)s1,0%,44%[activator],2.9%,-5%,24%,1%,-4%,23%
COC(=O)C1=C(C)Nc2nnnn2C1c1cccs1 (stereo not given),4%,-2%,3.2%,21%,0%,8%,-7%,-5%
COc1ccc(NC(=O)CSc2nc3[nH]ncc3c(=O)[nH]2)c(OC)c1,·,-21%,·,·,20%,-5%,·,10%
Cc1ccc(C(C)C)c(OCC(=O)NNC2=CC(=O)CC(C)(C)C2)c1,0%,-17%,·,6%,?,-16%,·,-24%
COC(=O)c1cc(NC(=O)COC(=O)CN2C(=O)C3CC=CCC3C2=O)cc(C(=O)OC)c1 (stereo not given),6%,-19%,·,·,?,-13%,·,?
COc1ccc(F)cc1S(=O)(=O)NCC(c1ccco1)S(=O)(=O)c1ccc(F)cc1 (stereo not given),·,54%[activator],-5.1%,·,·,·,10%,0%[46.1 µM]
COc1ccc(C)cc1S(=O)(=O)N1CCC(C(=O)NCCc2ccccc2)CC1,16%,20%,-3.9%,-15%,?,·,7%,0%
Cc1cccc(-n2ccnc2CN2CCN(C3CCCC3)C(CCO)C2)c1 (stereo not given),1%,-11%,·,4%,·,-5%,·,·
Cc1ccc(NC(=O)CNc2ccccc2N2CCCC2=O)cc1S(=O)(=O)N1CCCCC1,0%,0%,·,·,?,-24%,·,?
O=C(c1cccnc1)N1CCN(c2ccc([N+](=O)[O-])cc2Cl)CC1,-13%,-25%,-5.3%,3%,·,-3%,6%,·
CCc1nc2c(oc3ccccc32)c(=O)[nH]1,-7%,25%,5.7%,7%,?,12%,4%,24%
CC(=O)C1=C(O)C(=O)N(c2ccc(S(N)(=O)=O)cc2)C1c1cccc([N+](=O)[O-])c1 (stereo not given),1%,-7%,·,-4%,·,0%,·,·
CCCC1Cc2c(sc(N)c2C#N)CO1 (stereo not given),0%,-16%,·,-4%,4%[46.1 µM],8%,·,?
Cc1ccc(-c2nc3ccccc3c(=O)n2NC(=O)COc2ccccc2)cc1,5%,0%,-4.7%,16%,4%,-1%,-8%,-10%
Cn1nc(C(=O)NC2CCCN(Cc3ccccc3F)C2)c2ccccc2c1=O (stereo not given),-5%,-24%,·,-24%,?,-19%,·,?
CC[n+]1ccc(/C=C/c2c[nH]c3ccccc23)cc1,-2%,?,·,-1%,·,-22%,·,·
CC1(C)CC(=O)C=C(NC2CCCCCC2)C1,0%,·,1.5%,4%,-13%,13%,-6%,-4%
O=C(c1c(Cl)cccc1Cl)N1CCCCCC1,-5%,-23%,3.1%,2%,13%[46.1 µM],13%,6%,-2%
COc1ccc(-c2nc(N)n(C(=O)Cc3ccccc3)n2)cc1,5%,3%,-0.3%,-5%,5%,-20%,-6%,-9%
COc1ccc(C2C=C(C)Nc3nc4ccccc4n32)cc1 (stereo not given),-1%,37%[activator],·,·,?,45%,·,·
O=C(CSc1ncccn1)N1CCCC1,1%,25%,·,6%,-1%[46.1 µM],8%,·,9%[46.1 µM]
CC(C(=O)Nc1ccc(C#N)cc1)N(C)CC(=O)N(C)c1c(N)n(Cc2ccccc2)c(=O)[nH]c1=O (stereo not given),1%,-17%,·,·,-1%[46.1 µM],1%,·,14%[46.1 µM]
Cc1ccc(NCC(=O)N/N=C/c2cc3ccccc3nc2Cl)cc1,-7%,0%,-15%,16%,12%,2%,25µM*,-13%
O=C(/C=C/c1cccc([N+](=O)[O-])c1)NCc1ccco1,-13%,-7%,0.3%,-3%,10%,1%,7%,-12%
N#Cc1ccsc1NC(=O)C1CCN(C(=O)c2ccc(Cl)cc2)CC1,-6%,-4%,·,·,?,-17%,·,0%
CCN1C(=O)[C@H]2[C@@H](c3ccccc3)N3C(=O)N(c4cccc(F)c4)C(=O)[C@@]3(CC(C)C)[C@H]2C1=O,3%,-17%,·,6%,·,-4%,·,·
CN(C(=O)c1ccco1)c1nnc(C23CC4CC(CC(C4)C2)C3)s1,-17%,19%,-5.6%,-37%,?,5%,22%,13%
CN(C)CCNc1ccc(CO)c2oc3ccc(O)cc3c(=O)c12,·,2%,·,·,?,-9%,·,?
CC(=O)N/N=C/c1cc(C(C)(C)C)cc(/C=N/NC(C)=O)c1O,0%,-15%,·,-7%,?,1%,·,?
COc1ccc(C(=O)Nc2cccc3c2CCCC3)cc1OC,-1%,9%,·,23%,·,8%,·,·
CC(OC(=O)CCCN=C1NS(=O)(=O)c2ccccc21)C(=O)Nc1ccccc1[N+](=O)[O-] (stereo not given),-2%,-23%,·,·,?,13%,·,-1%[46.1 µM]
CCc1cc2cc(C)ccc2nc1SCC(=O)NNC(=O)c1ccco1,1%,-3%,·,13%,-21%[46.1 µM],13%,·,-20%
COCCCNC(=O)c1cnn(-c2ccc(F)cc2F)c1C1CCNCC1,·,4%,-1.9%,·,·,·,0%,?
COc1cc2c(cc1OC)CC(C(=O)NCc1ccccc1)NC2 (stereo not given),2%,9%,·,15%,-6%[46.1 µM],1%,·,1%[46.1 µM]
COc1ccc(OC)c(CNC(=O)CN2CC(C)Sc3ccccc32)c1 (stereo not given),·,-10%,-7.0%,·,·,·,2%,-13%[46.1 µM]
CC(C)c1nc(N2CCN(C(=O)c3ccco3)CC2)c(C#N)c2c1COC(C)(C)C2,-2%,-20%,·,-33%,?,4%,·,-24%[46.1 µM]
Cc1nc(CCNC(=O)C2CCC(=O)N(CCc3cccc(F)c3)C2)sc1C (stereo not given),0%,-5%,·,-9%,4%,-8%,·,1%
Cc1ccc2oc(=O)c3cnn(CC(=O)NCCc4ccsc4)c3c2c1,8%,0%,1.5%,9%,·,3%,?,·
O=C(Cn1c(=O)c2cccn2c2ccccc21)NCCc1ccccc1,3%,-12%&2%,-4.7%,20%,·,15%,16µM*,?
Nc1nc2cc3ccccc3cc2[nH]c1=O,5%,36%[activator],·,25%,·,4%,·,·
COc1ccc2cnn(-c3ccccc3)c(=O)c2c1OC,-7%,53%[activator],3.7%,-22%,7%,-9%,5%,-4%
COC(=O)C1=C(C(=O)c2ccc(C)cc2)C(c2ccccc2)n2nnnc2N1 (stereo not given),2%,?,1.0%,0%,6%,-8%,5%,-16%
CCOc1ccc(NC(=S)NC(=O)/C=C/c2ccc(OC)cc2)c([N+](=O)[O-])c1,0%,20%,3.3%,9%,?,-21%,-17%,-7%
CSc1ccc(C(=O)N2CCC(CCC(=O)NCc3ccc(F)cc3)CC2)cc1,-5%,14%,·,-3%,·,8%,·,·
Cc1ccnc(NC(NC(=O)C(C)C)(C(F)(F)F)C(F)(F)F)c1,-17%,-18%,-0.8%,6%,-17%,-12%,-2%,-4%
Cc1ccc(-c2cc(C(F)F)nc(N3CCOCC3)n2)cc1,-3%,-29%,·,-2%,?,5%,·,-5%[46.1 µM]
CCOc1ccc(CCNS(=O)(=O)c2cc3c(cc2C)NC(=O)CO3)cc1OCC,-3%,-5%,·,-3%,·,-13%,·,·
Cc1onc(-c2ccccc2Cl)c1C(=O)Oc1ccc(Cl)cc1Cl,·,-12%,-1.3%,·,·,·,-3%,-5%[46.1 µM]
O=C(NNC(=O)c1ccccc1Cl)c1cc2cc(OC(F)(F)F)ccc2[nH]1,2%,-24%,·,3%,-7%,-16%,·,-15%
Cc1nn(-c2ccccc2)c2c1N(CC(=O)N1CCN(c3cccc(Cl)c3)CC1)C(=O)CS2,·,-14%,-1.1%,·,·,·,-14%,-8%[46.1 µM]
C/C(CC(=O)Nc1ccccn1)=N\NC(=O)c1ccc2ccccc2c1,3%,33%[activator],-3.0%,-1%,16%,-2%,-2%,3%
CN(Cc1c(C(=O)N/N=C/c2ccc(O)cc2)nnn1-c1nonc1N)c1ccccc1,5%,-1%,·,17%,·,1%,·,·
COc1ccc(C(=O)NCc2ccc(S(N)(=O)=O)cc2)cc1[N+](=O)[O-],0%,-6%,·,·,-8%,4%,·,-1%
O=C(/C=C/c1ccc(Br)cc1)NC(=S)NNC(=O)c1ccco1,-20%,-17%,4.1%,-2%,-4%,-21%,-14%,-6%
CCCCNC(=O)/C(C#N)=C/c1cccnc1,-55%,0%,-1.5%,-9%,-2%,-16%,2%,13%
CCCC(=O)NC(=S)Nc1ccc(N2CCN(C(=O)c3cccs3)CC2)cc1,0%,?,·,·,?,0%,·,?
COc1ccccc1OC(C)C(=O)Nc1ccc(S(=O)(=O)Nc2nccs2)cc1 (stereo not given),13%,61%[activator],·,1%,17%[46.1 µM],1%,·,?
CCOC(=O)c1c(C)[nH]c(C(=O)OCC(=O)Nc2cc(C)c(Cl)cc2OC)c1C,10%,-11%,-2.0%,8%,-26%,0%,-2%,-11%
COc1cc2cc(Oc3ccc4ccc(=O)oc4c3)c(=O)oc2cc1OC(C)=O,5%,1%,·,-5%,·,9%,·,·
Cc1ccsc1C(=O)NCCc1c[nH]c2ccccc12,-2%,20%,·,-37%,4%[46.1 µM],-26%,·,-7%[46.1 µM]
# Additional structures:
SMILES,SARS PLP yeast,2A StopGo,Cruzain inh Det,NS1 inh,Marburg entry inh,RE007 growth inh,Cruzain inh noDet,LASV entry inh
O=C(COC(=O)COc1ccc(Cl)cc1)NCc1cccs1,2%,-14%,-3.3%,-9%,0%,33%,3%,21%
CCOC(=O)N1CCC(N2C(=O)c3ccccc3C2Nc2cccnc2)CC1 (stereo not given),-2%,-20%,0.4%,2%,·,-4%,-6%,·
Cc1ccc(C(=O)Nc2cccc(C(F)(F)F)c2)cc1NC(=O)c1ccno1,-3%,-22%&-23%,·,4%,·,18%&-3%,·,·
Cc1ccccc1-c1nc(-c2ccc(NC(=O)c3cccs3)cc2)no1,0%,-7%,3.1%,-22%,?,17%,?,3%
Cc1cc(N=CC2=C(O)CCCC2=O)no1,-1%,-9%,2.8%,-6%,-8%,5%,0%,3%

# Assay outcomes deposited in PubChem BioAssay by National Center for Advancing Translational Sciences (NCATS).
